Mtb betalactam – beta-lactam sensitization of Mtb H37Rv, H37Rv | M. tuberculosis H37Rv growth with meropenem, percent inhibition; hits of this screen are not shown here | inhibition, % at 25 µM | 0.27% of 330,000 active;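 active = about 74% or more and at least 40 points above the plate without the antibiotic, then above 30% in a dose series; inconclusive = first-round hits that could not be retested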;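 also: growth measured after seven days incubation then overnight dye step; 0% = bacteria only wells and 100% = bacteria with antibiotic; twin plates without the antibiotic show which effects depend on it; some results filed as inactive read as strong as hits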
RecA intein inh – Mtb RecA intein splicing inhibitors, primary screen, biochemical, fluorescence, HTS | cell-free RecA intein splicing | inhibition, %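 (about 9 µM by stock and volumes)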 | 0.75% of 290,000 active | AID 2221, 2009; in the data active = inhibition above about 30%; inconclusive = no clear call, values can overlap the other calls;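 also: 0% = vehicle wells and 100% = reference inhibitor control wells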
Target sequence (P9WHJ3 whole entry, looked up): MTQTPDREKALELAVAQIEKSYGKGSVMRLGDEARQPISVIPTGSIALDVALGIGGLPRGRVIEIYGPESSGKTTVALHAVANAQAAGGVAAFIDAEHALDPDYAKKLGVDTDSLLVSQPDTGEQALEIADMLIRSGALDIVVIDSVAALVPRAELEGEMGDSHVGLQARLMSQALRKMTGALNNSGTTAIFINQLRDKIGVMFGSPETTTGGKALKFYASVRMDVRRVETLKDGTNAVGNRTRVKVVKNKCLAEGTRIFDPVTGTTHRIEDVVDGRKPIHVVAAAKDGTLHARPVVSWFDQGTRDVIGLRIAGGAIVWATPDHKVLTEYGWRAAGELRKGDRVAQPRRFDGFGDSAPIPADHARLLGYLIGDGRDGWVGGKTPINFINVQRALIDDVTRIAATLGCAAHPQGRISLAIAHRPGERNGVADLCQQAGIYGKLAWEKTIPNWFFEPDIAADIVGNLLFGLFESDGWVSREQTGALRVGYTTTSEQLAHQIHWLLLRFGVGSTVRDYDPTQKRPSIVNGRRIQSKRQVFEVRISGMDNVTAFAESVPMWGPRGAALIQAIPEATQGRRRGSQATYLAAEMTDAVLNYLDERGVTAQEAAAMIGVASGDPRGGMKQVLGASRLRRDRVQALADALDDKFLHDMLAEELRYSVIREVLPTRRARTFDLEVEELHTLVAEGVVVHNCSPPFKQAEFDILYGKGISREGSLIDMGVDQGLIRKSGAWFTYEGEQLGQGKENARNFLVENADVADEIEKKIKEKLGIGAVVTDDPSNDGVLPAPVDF
Arbovirus anti – antivirals against arbovirus infection, primary screen, cell-based, full library, 10K replicate subset; arbovirus infection cell-based antiviral screen; 0.37% of 200,000 active; AID 1251, 2008; inhibition, % at 10 µM;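 active = inhibition from about 30%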;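 also: bluetongue infection of BSR cells; cell survival read as ATP light after 72 h; 0% = infected wells without compound and 100% = uninfected wells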
Mtb H37Rv – M. tuberculosis H37Rv growth inhibitors, H37Rv strain (AID 1626). M. tuberculosis H37Rv growth inhibition; higher % means a stronger effect. inhibition, % at 10 µM; hits with a dose series show IC50 in µM. 0.95% of 220,000 active;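 active = confirmed in a dose series; inconclusive = inhibition above 80% but not taken into the dose series; inactive = below 80% or under 30% at every dose of the series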;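 also: bacteria incubated seven days before Alamar blue readout; 0% = bacteria only wells and 100% = bacteria with antibiotic wells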
YopH inh – YopH tyrosine phosphatase inhibitors, primary screen, biochemical, fluorescence Ex485/Em525; YopH tyrosine phosphatase [Yersinia enterocolitica]; inhibition, %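 (about 10 µM by stock and volumes)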; 0.16% of 140,000 active;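 active = inhibition of 50% or more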;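 also: controls were vehicle for no effect and minimum signal wells for full effect; inactives centre near -20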
Arbovirus anti repeat – second read-out of Arbovirus anti, no call of its own (marks repeat the call); inhibition, %; measured here: 10K subset replicate screen; many hits read low in the repeat;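 first of two repeat runs on a subset; 0% = infected and 100% = uninfected wells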
* = called active by the depositor; u = inconclusive; x = not tested or not shown.

SMILES	Mtb betalactam	RecA intein inh	Arbovirus anti	Mtb H37Rv	YopH inh	others
Cc1cc(C)cc(S(=O)(=O)c2cnc3ccccc3n2)c1	0	32*	11	0%	x
CCn1cc(C(=O)NCCCOC(C)C)c(=O)c2cc(S(=O)(=O)N3CCOCC3)ccc21	-1	-2.7	x	x	x
Cc1ccc(NCCC(=O)c2ccc(Br)cc2)cc1	100	0.9	5	76%	4
O=C(NC(Cc1ccccc1)c1ccc2c(c1)OCCCO2)c1ccccc1F (configuration not stated)	0	-1.6	1	-4%	-19
O=C(Nc1ccc(Oc2ccc(C(F)(F)F)cn2)c(Cl)c1)C1CC1	-1	-1.4	7	x	x
O=C(NCCCn1ccnc1)c1cc(C(=O)C2CC2)c[nH]1	10	5.2	0	-4%	-34
COCc1[nH]nc2c1C(c1ccc(OC)cc1)C(C#N)=C(N)O2 (configuration not stated)	-2	58*	-3	4%	-14
CCOC(=O)N/N=C/c1ccc(N2CCOCC2)s1	-9	2.3	-14	-17%	-12
Cc1cccc(C)c1N(CC(=O)N1CCCC1)S(C)(=O)=O	-8	-2.4	x	x	x
N=c1n(Cc2ccccc2)c2ccccc2n1CC(O)COc1ccc(Cl)cc1Cl (configuration not stated)	x	32*	-31	52%	x
CCOC(=O)N1CCC(N(CCN(C)C)C(=S)Nc2ccccc2OC)CC1	-2	0.6	3	2%	x
Cc1cc(=O)[nH]c(N2CCN(C(c3ccccc3)c3ccccc3)CC2)n1	1	2.1	-5	9%	-5

3 compounds out of the list, sorted by formula weight, highest first.
SMILES	Mtb betalactam	RecA intein inh	Arbovirus anti	Mtb H37Rv	YopH inh	others
CCn1cc(C(=O)NCCCOC(C)C)c(=O)c2cc(S(=O)(=O)N3CCOCC3)ccc21	-1	-2.7	x	x	x
O=C(Nc1ccc(Oc2ccc(C(F)(F)F)cn2)c(Cl)c1)C1CC1	-1	-1.4	7	x	x
O=C(NCCCn1ccnc1)c1cc(C(=O)C2CC2)c[nH]1	10	5.2	0	-4%	-34

New compounds follow
SMILES	Mtb betalactam	RecA intein inh	Arbovirus anti	Mtb H37Rv	YopH inh	others
Nc1nc(N2CCCCC2)nc(N(c2ccccc2)c2ccccc2)n1	3	3.6	3	1%	-3	Arbovirus anti repeat=1
O=C(Nc1ccc(/C=C/c2nc3ccccc3o2)cc1)c1ccc(F)cc1	27	-1.5	-6	-5%	-24
Cc1cc2nnc(SCCCCN3C(=O)c4ccccc4C3=O)n2c2ccccc12	x	x	4	-8%	-23
CSCC[C@H](NC(=O)[C@@H]1Cc2ccccc2CN1)C(=O)NC(C)c1ccccc1 (some centres not stated)	-9	0.3	x	x	x
COc1cccc(N(C(=O)c2cccs2)c2nc3ccccc3s2)c1	55	-1.2	-7	2%	-34
O=C(Cn1c(=O)oc2ccc(Cl)cc21)NC1CCCCC1	6	-0.9	x	x	x
O=C(CSc1nnc(-c2ccco2)o1)NC1CC2CCC1C2 (configuration not stated)	49	0.7	1	6%	-18
CCCCn1c(N)c(N(CC(C)C)C(=O)c2cccc(S(=O)(=O)N3CCN(C(C)=O)CC3)c2)c(=O)[nH]c1=O	-9	-1.9	x	x	x
CC(C)[C@H](NC(N)=O)C(=O)NCCc1ccc(Cl)cc1	-10	-1.0	3	-6%	x
COc1ccc(-c2cnc(SCC(=O)Nc3nc(C(C)(C)C)cs3)n2Cc2ccco2)cc1	92	8.4	-1	u	20
Cc1csc(NC(=O)c2cc(-c3ccccc3)nc3ccccc23)n1	95	14	6	9%	-1
CCCCN1C(=O)C2NN=C(C(=O)OCC)C2C1=O (configuration not stated)	7	-1.9	-2	-6%	-138
CSc1ccccc1NC(=O)c1cnc2n(c1=O)CCS2	-3	0.3	-4	1%	-21	Arbovirus anti repeat=0
O=C(NNC(=S)Nc1ccccc1)c1ccco1	-14	1.8	9	-5%	-4
CP(=O)(O)CN1CCCCC1	-2	-0.6	3	-1%	x
COc1ccccc1CNC(=O)C(=O)Nc1nccs1	-2	2.6	-10	-8%	x
O=C(Nc1ccc2c(c1)OCCO2)C1CCC1	x	-0.2	-1	3%	-42
Cc1ccccc1OCC(=O)N/N=C1\SCC(=O)N1Cc1ccccc1	2	-0.5	-10	8%	-28
COc1ccc(CCN(C)C(=O)c2cc(-c3ccccc3)nc3ccc(C)cc23)cc1OC	9	1.3	x	x	x
COc1ccc(OC)c2[nH]c(=O)c(CCNC(=O)C(=O)c3c(C)[nH]c4ccccc34)cc12	4	2.3	4	3%	x
C#CCOCCOCCOCCNc1nc(N2CCN(C(=O)[C@H](CCC(=O)O)n3cc(C(N)CC(C)C)nn3)CC2)nc(N2CCN(C(=O)[C@H](CCC(=O)O)n3cc(C(N)[C@H](C)CC)nn3)CC2)n1 (some centres not stated)	-8	-2.6	5	2%	x
CCN1CCN(c2cc(-c3ccccc3)nc3cc(-c4cccc(F)c4)nn23)CC1	100	-6.3	-36	8.1µM*	-17
CCc1cccc2c(C#N)cn(CCOc3ccccc3OC)c12	-1	-0.7	-5	0%	-20
CCN(CC)CC(=O)Nc1nc(-c2ccc(Cl)cc2)cs1	74	6.4	-1	65%	-4

An excerpt from above in order of heavy-atom count, descending:
SMILES	Mtb betalactam	RecA intein inh	Arbovirus anti	Mtb H37Rv	YopH inh	others
CCCCn1c(N)c(N(CC(C)C)C(=O)c2cccc(S(=O)(=O)N3CCN(C(C)=O)CC3)c2)c(=O)[nH]c1=O	-9	-1.9	x	x	x
COc1ccc(CCN(C)C(=O)c2cc(-c3ccccc3)nc3ccc(C)cc23)cc1OC	9	1.3	x	x	x
COc1ccc(OC)c2[nH]c(=O)c(CCNC(=O)C(=O)c3c(C)[nH]c4ccccc34)cc12	4	2.3	4	3%	x
CCN1CCN(c2cc(-c3ccccc3)nc3cc(-c4cccc(F)c4)nn23)CC1	100	-6.3	-36	8.1µM*	-17
CSCC[C@H](NC(=O)[C@@H]1Cc2ccccc2CN1)C(=O)NC(C)c1ccccc1 (some centres not stated)	-9	0.3	x	x	x
CCOC(=O)N1CCC(N(CCN(C)C)C(=S)Nc2ccccc2OC)CC1	-2	0.6	3	2%	x
Cc1cc(=O)[nH]c(N2CCN(C(c3ccccc3)c3ccccc3)CC2)n1	1	2.1	-5	9%	-5
Nc1nc(N2CCCCC2)nc(N(c2ccccc2)c2ccccc2)n1	3	3.6	3	1%	-3	Arbovirus anti repeat=1
Cc1csc(NC(=O)c2cc(-c3ccccc3)nc3ccccc23)n1	95	14	6	9%	-1
CCc1cccc2c(C#N)cn(CCOc3ccccc3OC)c12	-1	-0.7	-5	0%	-20
COCc1[nH]nc2c1C(c1ccc(OC)cc1)C(C#N)=C(N)O2 (configuration not stated)	-2	58*	-3	4%	-14
O=C(CSc1nnc(-c2ccco2)o1)NC1CC2CCC1C2 (configuration not stated)	49	0.7	1	6%	-18
Cc1cccc(C)c1N(CC(=O)N1CCCC1)S(C)(=O)=O	-8	-2.4	x	x	x
COc1ccccc1CNC(=O)C(=O)Nc1nccs1	-2	2.6	-10	-8%	x
CCCCN1C(=O)C2NN=C(C(=O)OCC)C2C1=O (configuration not stated)	7	-1.9	-2	-6%	-138
O=C(NNC(=S)Nc1ccccc1)c1ccco1	-14	1.8	9	-5%	-4
CP(=O)(O)CN1CCCCC1	-2	-0.6	3	-1%	x

Later entries.
SMILES	Mtb betalactam	RecA intein inh	Arbovirus anti	Mtb H37Rv	YopH inh	others
CCC(C)NC(=S)N1CCN(Cc2ccc3c(c2)OCO3)CC1 (configuration not stated)	3	-0.1	9	-3%	x
COc1ccc(-c2nc3c(c(=O)[nH]c(=O)n3Cc3ccccc3)n2Cc2ccccc2)cc1	7	-1.4	-26	10%	-15
CC(Sc1ccccc1)C(=O)Nc1ccccc1C(=O)N1CCOCC1 (configuration not stated)	-13	28	1	-11%	-52
O=C1NC(=O)c2cc(NC(=O)C3COc4ccccc4O3)ccc21 (configuration not stated)	1	2.1	-2	4%	x
CC(C)(C)C1=Nn2c(nnc2-c2ccco2)SC1	-2	2.5	2	-3%	-38
CC/C(=C\C(=O)c1cccnc1)Nc1ccc(C)c(C)c1	88	7.0	-40	89%	-25
O=C(O)CC1S/C(=N/N=C/C2CC=CCC2)NC1=O (configuration not stated)	-5	3.8	9	0%	x
CCOC(=O)N1CCC(NC(=O)C(NS(=O)(=O)c2ccc3c(c2)CCN3C(=O)CC)C(C)C)CC1 (configuration not stated)	-4	1.2	6	1%	x
COc1ccc(S(=O)(=O)N2CCCCCC2)cc1C(=O)N(C)CC(=O)Nc1ccccc1Cl	-15	0.8	x	x	x
C=CCSc1nnc(NC(=O)COc2ccc3ccccc3c2)s1	8	-0.5	6	4%	-15
COc1ccc(N=Nc2[nH]c3ccc(C)cc3c2O)cc1	-5	1.0	5	0%	-13
Cc1ccccc1CN1C(=O)[C@H]2Cc3c([nH]c4ccccc34)C(C)(C)N2C1=O	-16	-4.4	x	-9%	x
COc1ccc(NC(=O)/C(C#N)=C/C=C/c2ccco2)cc1	5	0.6	-10	7%	-21
Clc1ccc(N2CCN(c3ncnc4c3oc3ccccc34)CC2)cc1	5	2.7	x	-19%	x
O=C1NC(=O)N(Cc2ccccc2)C(=O)/C1=C\c1ccco1	2	-0.2	5	-4%	x
Cc1ccccc1NC(=S)/C(=C(\[O-])c1ccc(C)c([N+](=O)[O-])c1)[n+]1ccccc1	1	28	-3	2%	-17
N#Cc1c(NC(=S)NC(=O)c2ccccc2)sc2c1CCN(CCc1ccccc1)C2	-1	-61	7	-4%	3
N#Cc1nc(-c2ccco2)oc1N1CCN(c2cccc(Cl)c2)CC1	-1	7.5	-2	4%	8
CC(C(=O)OCC(=O)c1ccc(Br)cc1)N1C(=O)C2C3CCC(C3)C2C1=O (configuration not stated)	0	2.9	x	x	x
COc1ccccc1NC1=NC2(CCCC2)N=C(N)N1	-3	-2.6	1	5%	-73
CCCCn1c(N)c(N(CC(C)C)C(=O)c2cc(-c3ccc(OC)c(OC)c3)nc3ccccc23)c(=O)[nH]c1=O	-8	0.8	x	x	x
Cn1c(SCC(=O)N2CCOCC2)nnc1-c1cccc(NC(=O)c2ccccc2F)c1	-7	-0.7	5	-11%	8
CCCc1cc(C(=O)NCc2cccs2)no1	-1	1.0	-2	16%	-34	Arbovirus anti repeat=-6
CC(=O)NS(=O)(=O)c1ccc(NC(=S)NC(=O)c2ccco2)cc1	-8	1.9	5	-8%	-6
CCOC(=O)/C(C#N)=C/c1cc(C)n(-c2ccc(Br)cc2)c1C	2	-0.5	-4	x	0
CCOc1ccc(NS(=O)(=O)c2cc(C(=O)N(CC)CC(=O)NCc3cccs3)ccc2C)cc1	-4	5.6	x	x	x
Cc1ccc(/C=N/n2c(COc3ccccc3)n[nH]c2=S)cc1	u	0.5	x	x	x
CC(=O)Oc1ccc(C(=O)Nc2ccc(S(=O)(=O)N3CCOCC3)cc2)cc1	-3	0.3	x	x	x
Cc1cnc(C(=O)Nc2ccccc2-c2ccc(C)o2)cn1	4	-1.4	-12	-1%	-27
COc1cccc(-c2cccc(NC(=O)C3CCN(Cc4ccon4)CC3)c2)c1	3	-0.7	x	x	x
Cc1ccc(OCCCC(=O)Nc2ccc(S(=O)(=O)Nc3cc(C)on3)cc2)cc1	86	0.0	15	-5%	-30
C/C(=N/NC(=O)c1ccc(Br)o1)c1ccc(C)o1	6	0.0	6	-6%	-30
COc1cc(/C=N/NC(=O)c2ccc(O)cc2)ccc1Oc1ccc([N+](=O)[O-])cn1	18	-1.2	-1	13%	-8
CC(C)NS(=O)(=O)c1ccc(OCC(=O)NCC2CCCO2)c(Cl)c1 (configuration not stated)	-10	-1.7	7	-2%	-3
CCOc1ccc(NS(=O)(=O)c2ccc3c(c2)N(C(C)=O)CC3)cc1	5	12	3	-11%	x
O=C(Cc1ccccc1)c1c[nH]c(C(=O)NCc2ccncc2)c1	-4	-3.8	13	1%	x
OC(CNC1CCCc2ccccc21)COc1ccc2ccccc2c1 (configuration not stated)	85	0.4	-35	4%	-10
O=[N+]([O-])c1cccc(S(=O)(=O)N2CCCCC2c2cccnc2)c1 (configuration not stated)	-9	-3.3	x	x	x
COc1ccc(-c2nnc(SCc3ccccc3F)o2)cc1OC	20	1.2	-1	5%	-27
COC(=O)c1[nH]c2cccc(OC)c2c1NC(=O)CCN1CCN(c2ccccc2F)CC1	x	-0.4	7	1%	-59
CCOC(=O)c1c(-c2ccccc2)csc1NC(=S)N(CC)CC	x	1.4	37*	3%	-28
COc1cc(/C=C/C(=O)Nc2ccc(C(C)=O)cc2)cc(OC)c1OC	0	-3.9	11	-3%	-24
COc1cccc(Nc2nc(=O)[nH]nc2C)c1	-3	0.2	3	1%	22
COc1ccc(N2CCC(CNC(=O)Nc3ccc(OC)cc3OC)C2)cc1 (configuration not stated)	24	3.2	-4	x	-14
O=C(O)CCC(=O)N1N=C(c2ccco2)CC1c1cccs1 (configuration not stated)	2	4.5	4	-17%	-32

Only part of the results is shown (hit frequency here may not be typical).
